Marburg entry inh = blocks Marburg virus binding to or entry into cells; Marburg virus pseudotyped entry inhibition, cell reporter; control for the full effect not named in the record; about a third of the inactives were read at about 46 µM; Potency, µM (highest dose often 37.8 µM), for the others: top-dose activity change, negative = inhibition, most hits filed as inhibitors; AID 540276; 1.8% of 300,000 active; active = well fitted inhibition curve with a large enough effect; inconclusive = small, poorly fitted or top-dose-only effect, or effect the other way; inactive = flat fitted curve, though single readings scatter; tested in HEK293 cells; about a fifth of its hits are not listed in these tables; note: % is set by controls: 0 for no effect and ±100 for the full control effect; luciferase read-out
RE007 growth inh = less growth of the S. pombe RE007 Vpr strain; S. pombe RE007 Vpr strain, BacTiter-Glo ATP luminescence, 24 h; control for the full effect not named in the record; Potency, µM (series often up to 92.2 µM), for the others: at the highest dose activity change, negative = less growth; 0.21% of 360,000 active; AID 651644; active = well fitted falling curve with a large enough effect; inconclusive = small, poorly fitted or top-dose-only effect; inactive = no such curve, though single readings can be large or run the other way;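 note: % is set by controls: 0 for no effect and ±100 for the full control effect; nearly all actives have a fitted effect of over 50% in size; the assay follows cell death caused by Vpr and the record does not say whether a fall means rescue or toxicity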
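Fission yeast strain RE007, carrying one chromosomally integrated HIV-1 vpr copy, was seeded at OD 0.01 in PMG+AL medium with 23 nL pinned compound. After 24 h at 30 °C and 99% humidity, viability was read by BacTiter-Glo luminescence.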
NS1 function inh = blocks influenza NS1 protein function; S. cerevisiae slowed by influenza A NS1, growth recovery by OD600; Potency, µM (top dose mostly 46.1 µM), inactives show at the highest dose activity, positive = more growth; 0.4% of 270,000 active; AID 2326; note: actives are rising curves; nearly all actives have a fitted effect of over 50% in size
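Recovery from NS1-induced slow growth read by OD600 in budding yeast switched to galactose assay medium (pH 6.0, -URA) at 1:100 dilution. Compound 23 nl per well; the matching strain lacking NS1 serves as control.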
Cruzain inh Det = inhibitors of Trypanosoma cruzi cruzain with detergent; purified cruzain, Z-FR-AMC fluorescence, 0.01% Triton; Potency, µM, without a hit: max response, negative = inhibition, actives largely listed as inhibitors; P25779; 0.43% of 200,000 active; active = well fitted curve in the direction sought with a large enough effect; inconclusive = small, poorly fitted or top-dose-only effect, or another doubt; inactive = no such curve, though single readings can be large; an effect the other way counts as inactive or inconclusive;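 note: plate controls were neutral wells for no effect and buffer without enzyme for full effect; nearly all actives have a fitted effect of over 40% in size; top concentration of the series not given in the record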
Target sequence (P25779 123-467 limits assumed): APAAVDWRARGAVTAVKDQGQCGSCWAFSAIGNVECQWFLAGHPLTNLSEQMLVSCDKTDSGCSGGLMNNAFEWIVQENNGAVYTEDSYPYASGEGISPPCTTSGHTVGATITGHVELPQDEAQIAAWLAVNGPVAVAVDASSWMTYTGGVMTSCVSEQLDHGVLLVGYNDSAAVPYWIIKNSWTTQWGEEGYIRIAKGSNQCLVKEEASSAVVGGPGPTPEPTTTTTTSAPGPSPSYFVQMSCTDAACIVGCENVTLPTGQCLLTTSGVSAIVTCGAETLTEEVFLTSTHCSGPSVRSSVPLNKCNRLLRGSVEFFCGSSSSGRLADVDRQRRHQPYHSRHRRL
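Z-FR-AMC hydrolysis (2 uM substrate) by cruzain (1.5 nM) monitored kinetically at ex 360/em 450 nm after 15 min room-temperature compound exposure; 0.01% Triton X-100, pH 5.5, 5 mM DTT.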
Cruzain inh noDet = blocks cruzain activity in detergent-free assay. purified cruzain, Z-FR-AMC fluorescence, no detergent. Potency, µM, for the others: max response, negative = inhibition, usual class: inhibitors. 2.3% of 200,000 active; active = well fitted curve in the direction sought with a large enough effect; inconclusive = small, poorly fitted or top-dose-only effect, or another doubt; inactive = no such curve, though single readings can be large; an effect the other way counts as inactive or inconclusive;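 note: plate controls were enzyme without inhibitor for no effect and buffer without enzyme for full effect; nearly all actives have a fitted effect of over 40% in size; top concentration of the series not given in the record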
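Purified cruzain at 1.5 nM, pre-incubated 15 min with compound at room temperature in 100 mM sodium acetate pH 5.5, 5 mM DTT, 0.00005% Triton X-100. Reaction started with 2 uM Z-FR-AMC; AMC fluorescence increase over 60 s gives rate.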
StopGo reporter = FMDV 2A StopGo reporter, luciferase signal. human cells with a luciferase reporter of 2A StopGo recoding; control for the full effect not named in the record. Potency, µM (series often up to 57.9 µM), inactives show at the top dose signal change, negative = less light. 1.2% of 410,000 active; active = well fitted falling curve with a large enough effect; inconclusive = small, poorly fitted or top-dose-only effect; inactive = no such curve, though single readings can be large or run the other way; tested in HEK293T cells; note: % is set by controls: 0 for no effect and ±100 for the full control effect; nearly all actives have a fitted effect of over 45% in size; luciferase light after 4 h
Lassa entry inh = Lassa virus entry inhibition | Lassa virus pseudotype entry inhibition, cell reporter; control for the full effect not named in the record | Potency, µM (top dose mostly 37.9 µM), for inactives: at the highest dose activity change, negative = inhibition, hits mostly inhibitors | 1.2% of 300,000 active | AID 540256; active means well fitted inhibition curve with a large enough effect; inconclusive means small, poorly fitted or top-dose-only effect, or effect the other way; inactive means flat fitted curve, though single readings scatter; tested in HEK293 cells; note: % is set by controls: 0 for no effect and ±100 for the full control effect; nearly all actives have a fitted effect of over 50% in size; luciferase read-out
SARS PLpro yeast = blocks SARS-CoV papain-like protease in a yeast assay; Potency, µM (series often up to 32.9 µM), without a hit: at the highest dose activity, positive = growth rescue; S. cerevisiae expressing SARS-CoV PLpro, growth rescue; control for the full effect not named in the record; 0.19% of 330,000 active; note: 0% is about no effect; nearly all actives have a fitted effect of over 55% in size; growth read by luminescence after 48 h
* = called active by the depositor; u = inconclusive; x = no result given; [ ] = remark or other dose. Unless noted, calls come from the whole dose curve; as a rule, active means well fitted rising curve with a large enough effect; inconclusive means small, poorly fitted or top-dose-only effect; inactive means no such curve, though single readings can be large or run the other way. Potency is the fitted concentration of half-maximal effect.

SMILES	Marburg entry inh	RE007 growth inh	NS1 function inh	Cruzain inh Det	Cruzain inh noDet	StopGo reporter	Lassa entry inh	SARS PLpro yeast
O=C(Nc1ccc2oc(-c3ccccc3)nc2c1)c1cc(-n2cnnc2)ccc1Cl	-14%	7%	x	x	x	14%	u	0%
COC(=O)C1=NN[C@H](C(=O)OC(C)(C)C)[C@H]1c1ccccc1	u	-24%	-8%	-1.3%	-4%	-15%	-10%	-5%
COc1ccc(N2CC(C(=O)NCCc3ccc(Cl)cc3)CC2=O)cc1 (stereo not given)	26%[46.1 µM]	-10%	-17%	x	x	-10%	u	-3%
N/C(Cc1ccc([N+](=O)[O-])cc1)=N\OC(=O)Cc1ccccc1	-2%	-1%	-22%	-1.5%	5%	-3%	-6%	-7%
CC1=CC(=O)[C@H]2C(C)(C)CCC[C@]2(C)[C@@]1(O)CO	x	3%	4%	x	x	-12%	x	1%
Cc1cc(C)c2nc(-c3cccc(Cl)c3)c(C)c(C(=O)N3CCOCC3)c2c1	u	-10%	-4%	x	x	-14%	u	-23%
Cc1ccc(NC(=O)NCc2nc3ccccc3n2C)cc1	0%[46.1 µM]	-6%	-5%	x	x	3%	-2%[46.1 µM]	2%
NC(=S)N/N=C/c1coc2ccc(O)cc2c1=O	x	18%	5%	x	x	-6%	x	1%
Nc1ccc(O)c2c(=O)cc(-c3ccccc3Cl)oc12	u	-2%	2%	u	u	31%[activator]	u	4%
Cc1ccc2oc(-c3cccc(NC(=O)c4ccc(Br)o4)c3)nc2c1	18%	-2%	-3%	-3.4%	15%	8%	18%	9%
CC(C)(O)C#Cc1ccc(CN2CCCC(CNC(=O)c3ccco3)C2)cc1 (stereo not given)	13%	-5%	6%	x	x	-14%	3%	10%
FC(F)(F)c1cc(N2CCOCC2)nc(-c2ccccc2)n1	-18%	1%	2%	-7.2%	8%	-12%	u	-20%
Clc1ss/c(=N\c2ccccn2)c1Cl	23%	-17%	-37%	1.0%	25µM*	2%	1%	-8%
CC(=O)c1cccc(OCc2cc(C(=O)N(C)CCc3cnn(C)c3)no2)c1	x	6%	4%	x	x	-5%	x	-2%
COc1ccccc1CNC(=O)c1cnccn1	1%	-12%	12%	-4.2%	-4%	0%	-25%[14.3 µM]	-6%
O=C(O)CC(C(=O)N(c1ccccc1)c1ccccc1)N1CCOCC1 (stereo not given)	17%	0%	-7%	-0.6%	5%	-7%	-1%	-1%
CCC(C(=O)N1CCOCC1)n1nc(C)n2c(cc3cc(C)ccc32)c1=O (stereo not given)	30%[46.1 µM]	12%	13%	x	x	7%	0%[46.1 µM]	0%
CCOc1ccc(CCNC(=O)Cn2nc(CC)n3c(cc4c(OC)cccc43)c2=O)cc1OCC	-13%[46.1 µM]	x	x	-1.2%	17%	-10%	x	x
Cc1nc(C(=O)NNC(=O)c2c(-c3c(Cl)cccc3Cl)noc2C)cs1	1.6µM*	8%	-1%	x	x	u	u	-2%
Cc1cc(C)cc(NC(=O)Cn2c(=O)n(CCC(C)C)c(=O)c3cccnc32)c1	3%[46.1 µM]	x	x	0.6%	-1%	-1%	x	x
O=C(Nc1ccc(Cc2ccc(NC(=O)C3CC3)c(O)c2)cc1O)C1CC1	-14%	8%	u	-4.0%	-2%	-16%	u	2%
Brc1cccc(/C=N\n2cnnc2)c1	2%	16%	u	u	u	8%	u	2%
COc1ccc(C(=O)NCCNC(=O)c2ccc(OC)cc2)cc1	-2%[46.1 µM]	-13%	x	x	x	2%	-6%[46.1 µM]	x
O=c1[nH]cnc2c1c(-c1ccccc1)cn2-c1ccc(F)cc1	u	-5%	9%	-1.9%	4%	u	u	0%
O=C1CCC(=O)N(O)CCCCCNC(=O)CCC(=O)N(O)CCCCNC(=O)CCC(=O)N(O)CCCCCN1	x	-14%	1%	x	x	-9%	x	-1%
SMILES	Marburg entry inh	RE007 growth inh	NS1 function inh	Cruzain inh Det	Cruzain inh noDet	StopGo reporter	Lassa entry inh	SARS PLpro yeast
O=C(COc1ccc2oc(-c3ccco3)cc(=O)c2c1)N1CCCCC1	x	-15%	-6%	x	x	14%	x	-1%
COc1ccc(CCNC(=O)c2nc(SCc3ccc(C)cc3)ncc2Cl)cc1OC	-10%[46.1 µM]	x	x	0.8%	u	u	-27%[46.1 µM]	x
N#CCC(=N)N1CCN(c2cccc(Cl)c2)CC1	7%	-6%	5%	0.4%	13µM*	-12%	3%	1%
CC(C)(C)NC(=O)COC(=O)c1cc(F)c(F)cc1Cl	3%	4%	-3%	2.4%	2%	5%	-2%	-8%
O=C(CCCN1C(=O)C2CC=CCC2C1=O)Nc1ccccc1F (stereo not given)	x	-14%	-5%	x	x	5%	x	-1%
COc1ccccc1-n1nc(C)c(-c2ccccc2)c1N	5%[46.1 µM]	44%	x	x	x	-2%	13%[46.1 µM]	4%
COc1ccccc1C(c1nnnn1C(C)(C)C)N1CCN(Cc2ccncc2)CC1 (stereo not given)	u	16%	-7%	5.6%	-2%	-2%	-1%	4%
CCN1CCN(C(c2cccs2)C(C)NS(=O)(=O)c2ccc(F)cc2)CC1 (stereo not given)	x	10%	3%	-1.0%	-5%	-18%	x	8%
COc1cccc(NC(=O)CCNS(=O)(=O)c2ccc3c(c2)CC(C)N3C(=O)C2CC2)c1 (stereo not given)	x	2%	3%	x	x	-1%	x	2%
COc1ccc(N2CCN(C(=O)CN3CCN(c4nc(-c5ccc(F)cc5)cs4)CC3)CC2)cc1	u	-25%	7%	x	x	u	u	0%
CCCN(C(=O)C(C)Oc1cccc(Cl)c1)c1c(N)n(Cc2ccccc2)c(=O)[nH]c1=O (stereo not given)	30%	18%	16%	x	x	-13%	-1%	2%
CC(=O)N/N=C(\N)c1nonc1N	-3%	11%	2%	x	x	17%	x	-3%
CCOc1ccc(C2CC(c3c(O)n(C4CCCCC4)c(=O)[nH]c3=O)=Nc3ccccc3S2)cc1 (stereo not given)	u	x	x	-7.6%	-5%	25%	-4%[46.1 µM]	x
O=C(N/C(=C/c1cccs1)C(=O)N1CCOCC1)c1ccccc1	11%[46.1 µM]	3%	x	x	x	7%	x	-2%
Cc1cc(C)cc(N(CC(=O)NC(C)C)C(=O)CCC(=O)Nc2ccccn2)c1	x	-1%	10%	x	x	-14%	x	-1%
CC(=O)c1cccc(NC(=O)c2cc(-c3ccc(F)cc3)on2)c1	2%	8%	3%	1.6%	5%	47%[activator]	-7%	-3%
COc1ccnc(CSC(N)=Nc2ccc(F)cc2)c1	-18%	u	4%	-27%	-3%	-6%	-22%	-6%
Clc1ccc(OCc2cc(-c3ccccc3)no2)c(Cl)c1	7.1µM*	-5%	6%	-2.4%	-9%	-58%	11µM*	-6%
Cc1ccc(S(=O)(=O)N2CCC(NC(=O)c3ccccc3)CC2)cc1	13%[46.1 µM]	-9%	-2%	x	x	-24%	3%	2%
N#Cc1ccccc1/C=N/Nc1nc(-c2ccccc2)c2cc(Br)ccc2n1	2%[46.1 µM]	5%	2%	1.5%	u	u	-2%	2%
O=C(COc1cc(F)ccc1[N+](=O)[O-])Nc1cccc(Br)c1	-13%[14.2 µM]	-29%	0%	x	x	39%[activator]	14%	-2%
CN(C)c1ccc([N+](=O)[O-])cc1C(=O)O	-10%	4%	-2%	-8.2%	-2%	-20%	-5%	0%
O=C(c1cc(-c2cccc(O)c2)on1)N1CCCC1	u	-12%	-1%	x	x	0%	u	-11%

An excerpt of these results, as comma-separated lines:
SMILES,Marburg entry inh,RE007 growth inh,NS1 function inh,Cruzain inh Det,Cruzain inh noDet,StopGo reporter,Lassa entry inh,SARS PLpro yeast
COc1ccccc1C(c1nnnn1C(C)(C)C)N1CCN(Cc2ccncc2)CC1 (stereo not given),u,16%,-7%,5.6%,-2%,-2%,-1%,4%
CCN1CCN(C(c2cccs2)C(C)NS(=O)(=O)c2ccc(F)cc2)CC1 (stereo not given),x,10%,3%,-1.0%,-5%,-18%,x,8%
COc1cccc(NC(=O)CCNS(=O)(=O)c2ccc3c(c2)CC(C)N3C(=O)C2CC2)c1 (stereo not given),x,2%,3%,x,x,-1%,x,2%
COc1ccc(N2CCN(C(=O)CN3CCN(c4nc(-c5ccc(F)cc5)cs4)CC3)CC2)cc1,u,-25%,7%,x,x,u,u,0%
CCCN(C(=O)C(C)Oc1cccc(Cl)c1)c1c(N)n(Cc2ccccc2)c(=O)[nH]c1=O (stereo not given),30%,18%,16%,x,x,-13%,-1%,2%
CC(=O)N/N=C(\N)c1nonc1N,-3%,11%,2%,x,x,17%,x,-3%
CCOc1ccc(C2CC(c3c(O)n(C4CCCCC4)c(=O)[nH]c3=O)=Nc3ccccc3S2)cc1 (stereo not given),u,x,x,-7.6%,-5%,25%,-4%[46.1 µM],x
O=C(N/C(=C/c1cccs1)C(=O)N1CCOCC1)c1ccccc1,11%[46.1 µM],3%,x,x,x,7%,x,-2%
Cc1cc(C)cc(N(CC(=O)NC(C)C)C(=O)CCC(=O)Nc2ccccn2)c1,x,-1%,10%,x,x,-14%,x,-1%
CC(=O)c1cccc(NC(=O)c2cc(-c3ccc(F)cc3)on2)c1,2%,8%,3%,1.6%,5%,47%[activator],-7%,-3%
COc1ccnc(CSC(N)=Nc2ccc(F)cc2)c1,-18%,u,4%,-27%,-3%,-6%,-22%,-6%
Clc1ccc(OCc2cc(-c3ccccc3)no2)c(Cl)c1,7.1µM*,-5%,6%,-2.4%,-9%,-58%,11µM*,-6%
Cc1ccc(S(=O)(=O)N2CCC(NC(=O)c3ccccc3)CC2)cc1,13%[46.1 µM],-9%,-2%,x,x,-24%,3%,2%
N#Cc1ccccc1/C=N/Nc1nc(-c2ccccc2)c2cc(Br)ccc2n1,2%[46.1 µM],5%,2%,1.5%,u,u,-2%,2%
O=C(COc1cc(F)ccc1[N+](=O)[O-])Nc1cccc(Br)c1,-13%[14.2 µM],-29%,0%,x,x,39%[activator],14%,-2%
